# miR-21 reporter: raises the signal of a miR-21 reporter; AID 2288; Potency, µM (top dose mostly 38.3 µM), for inactives: at the top dose reporter change, positive = more light; 340,000 tested, under 10 active; HeLa miR-21 FLuc reporter, luciferase, 48 h; active = well fitted rising curve with a large enough effect; inconclusive = small, poorly fitted or top-dose-only effect; inactive = no such curve, though single readings can be large or run the other way;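 note: % of control where 0% means no effect; miR-21 action dims this reporter so a rising signal means less miR-21 action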
#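 HeLa cells stably expressing CMV-driven firefly luciferase with a downstream miR-21 binding sequence, endogenously expressing miR-21, were treated with titrations (up to about 40uM final) for 48 hours at 37 degree Celsius. Luciferase luminescence was read after lysis.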
# Rango complex inh: inhibitors of Rango-importin beta complex formation; Potency, µM (titrated, usually from 92.2 µM), for inactives: top-dose inhibition of complex formation; Rango CFP/YFP FRET sensor + importin beta, 45 min; Q14974; AID 540263; hit rate 0.031% among 340,000; active = rising FRET ratio curve, often small or poorly fitted; inconclusive = mostly compound fluorescence or quenching in the first reads; inactive = flat curves in all reads;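 note: potency is the fitted concentration of half-maximal effect; 0% = DMSO wells and 100% = buffer wells lacking importin beta; nearly all actives have a fitted effect of over 15% in size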
# Target sequence (Q14974 whole entry, looked up): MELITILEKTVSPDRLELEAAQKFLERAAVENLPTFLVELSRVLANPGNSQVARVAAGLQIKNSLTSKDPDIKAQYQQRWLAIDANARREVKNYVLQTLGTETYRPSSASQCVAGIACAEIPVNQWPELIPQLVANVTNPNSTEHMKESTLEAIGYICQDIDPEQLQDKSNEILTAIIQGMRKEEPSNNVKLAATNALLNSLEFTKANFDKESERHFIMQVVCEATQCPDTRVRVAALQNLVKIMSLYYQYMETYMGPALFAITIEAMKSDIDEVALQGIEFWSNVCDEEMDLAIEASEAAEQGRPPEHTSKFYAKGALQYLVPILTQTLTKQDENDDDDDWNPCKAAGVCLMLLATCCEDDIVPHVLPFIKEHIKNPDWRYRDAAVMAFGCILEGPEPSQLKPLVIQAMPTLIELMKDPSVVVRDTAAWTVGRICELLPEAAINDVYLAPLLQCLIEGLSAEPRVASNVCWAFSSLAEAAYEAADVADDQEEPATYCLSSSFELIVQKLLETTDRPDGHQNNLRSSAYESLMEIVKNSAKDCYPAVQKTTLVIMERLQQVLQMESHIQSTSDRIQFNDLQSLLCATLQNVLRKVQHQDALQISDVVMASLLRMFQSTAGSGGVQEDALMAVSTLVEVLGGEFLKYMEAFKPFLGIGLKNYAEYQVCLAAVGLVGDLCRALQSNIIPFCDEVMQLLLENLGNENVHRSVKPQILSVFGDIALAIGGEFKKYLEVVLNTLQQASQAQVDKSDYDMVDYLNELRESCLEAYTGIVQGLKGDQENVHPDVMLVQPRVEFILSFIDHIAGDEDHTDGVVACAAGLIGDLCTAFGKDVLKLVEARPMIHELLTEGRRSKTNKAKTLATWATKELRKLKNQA
#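 FRET biosensor (snurportin 1 IBB flanked by EYFP and cerulean), 50 nM, with compound 5 min, then 0.125 microM importin beta in PBS, 1 mM DTT, 0.02% Tween-20, 0.1% BSA. CFP/YFP ratio read after 45 min at room temperature; pre-read flags interference.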
# Rango dissoc inh: inhibitors of RanGTP-induced Rango-importin beta complex dissociation | Biochemical FRET Rango-importin beta, RanGTP-induced dissociation | hit rate 0.071% among 340,000 | Potency, µM (series often up to 46.1 µM), for the others: top-dose activity change, negative = inhibition | O95149+P62826 | AID 540253; active means falling FRET ratio curve, often poorly fitted, with flat reads before Ran was added; inconclusive means other falling curves, or compound fluorescence or quenching; inactive means flat or rising ratio curve;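 note: potency is the fitted concentration of half-maximal effect; % of control where 0% means no effect; nearly all actives have a fitted effect of over 45% in size; -100% = wells without RanGTP and RCC1; the record marks most hits as doubtful in a second field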
#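 Compounds preincubate 5 min with complex of recombinant Rango and importin beta in PBS with 1 mM DTT. Ran (0.6 uM) loaded with 2 mM GTP plus 0.2 uM RCC1 starts dissociation; FRET is recorded 45 min later.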
# GLA inh pH 4.5: inhibitors of human alpha-galactosidase A at pH 4.5; P06280; activity change, negative = inhibition, % at 105 µM; 230,000 tested, under 10 active; purified enzyme, 4-MU-alpha-Gal fluorescence, pH 4.5; inconclusive = small, poorly fitted or top-dose-only inhibition, or a rising curve; inactive = flat fitted curve, though single readings scatter; no compound was filed as active;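 note: 0% = full activity with enzyme and -100% = basal without enzyme; dose as in the result columns while the protocol names 77 µM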
# Starred values were filed as active, the others as inactive; ? = inconclusive; · = no result given; & = joins results of further samples; [ ] = remark or other dose. Some of the compounds tested (hit frequency here may not be typical).
no.	miR-21 reporter	Rango complex inh	Rango dissoc inh	GLA inh pH 4.5	Structure
1	0.0%	0.4%	-7.5%	·	CCOc1ccc(NC(=O)CCC(=O)Nc2cc(OC)c(NC(=O)c3ccco3)cc2OC)cc1
2	-0.3%	3.5%	9.8%	1.9	O=C(CN1CCOCC1)Nc1ccc2c(c1)OCO2
3	3.7%	2.8%	-2.7%	-6.1	CC(C)COc1ccc(/C(O)=C2/C(=O)C(=O)N(CCN(C)C)C2c2ccncc2)cc1 (configuration not stated)
4	-43.0%	-3.2%	1.6%	-1.2	CCOC(=O)c1cnn(-c2ccc(C(F)(F)F)cn2)c1N
5	-10.4%	-2.3%	19.4%	-0.1	CC(C(=O)N1CCOCC1)c1ccc([N+](=O)[O-])cc1 (configuration not stated)
6	-21.7%	-1.7%	-7.1%	2.2	CC1(C)Cc2c(c(N3CCOCC3)nc3sc(C(=O)N4CCCCC4)c(N)c23)CO1
7	-41.6%	2.2%	-2.0%	2.2	CNc1nc(-c2ccc(Cl)cc2)cs1
8	-60.5%	?	-10.1%	·	COCCn1c(C(F)(F)F)ccc(NC(=O)c2ccccc2)c1=O
9	·	-1.8%	10.6%	·	O=C(NCCCOC(=O)c1ccccc1)c1ccccc1
10	5.1%	1.1%	-5.7%	-0.2	c1ccc(COc2cccc(CNCc3cccnc3)c2)cc1
11	3.6%	-0.6%	0.6%	·	CCC(C)c1ccc(OCC(=O)Nc2cccc(C(=O)Nc3ccc(C(=O)O)cc3)c2)cc1 (configuration not stated)
12	-13.2%	2.5%	-0.3%	-1.6	C=CCSc1nsc(N)n1
13	-5.0%	?	-17.9%	0.8	O=C(NCC1CCCO1)c1onc(CSc2ccc(Cl)cc2)c1C(=O)O (configuration not stated)
14	-32.9%	8.8%	-19.4%	-0.4	Cn1nnnc1SCc1nnc(-c2ccc(F)cc2)o1
15	2.6%	-0.3%	1.1%	-8.4	Cc1ccc(C(=O)/C=C/c2ccccc2)o1
16	2.5%	-1.4%	1.6%	6.4	Cc1ccc(Cl)cc1N=C(N)N=C(N)N
17	-13.5%	-5.2%	15.4%	-2.3	O=C1C2CSCN2C(=O)CN1CCCN1CCN(C(c2ccccc2)c2ccccc2)CC1 (configuration not stated)
18	·	0.1%	7.0%	·	O=C(Nc1cc(C(F)(F)F)ccc1N1CCOCC1)C1=COCCO1
19	-0.8%	-5.3%	-14.2%	·	CCOC(=O)CN1C(=O)/C(=C2\SC(=S)N(NC(=O)c3cccnc3)C2=O)c2ccccc21
20	·	?	?	·	COc1cc(N(C)C)ccc1C=c1c2ccccc2n2c1cc(-c1ccccc1)[n+]2C
21	11.7%	-3.8%	10.6%	·	CC(Nc1nc(C(F)(F)F)nc2ccccc12)c1cccs1 (configuration not stated)
22	3.4%	-0.9%	6.1%	1.4	CC(C)C(=O)NC(=S)Nc1ccc(S(=O)(=O)N2CCCC2)cc1
23	-2.5%	-14.3%	-5.4%	0.1	CC1CCN(S(=O)(=O)c2ccc(C(=O)Nc3sccc3C(N)=O)cc2)CC1
24	-16.3%	0.5%	9.4%	1.3	Clc1ccc(OCCCc2nc(-c3cccnc3)no2)c(Cl)c1
25	-6.5%	0.5%&-2.6%	0.3%&-1.5%	·	Cc1onc(-c2c(Cl)cccc2Cl)c1C(=O)N[C@@H]1C(=O)N2[C@@H]1SC(C)(C)[C@@H]2C(=O)O
26	-4.7%	·	·	-7.1	COc1ccc(CCC(=O)Nc2cc(S(C)(=O)=O)ccc2Cl)cc1
27	1.3%	2.9%	-0.1%	-10.4	Cc1ccc(C(=O)NCc2ccc3c(c2)OCO3)cc1S(=O)(=O)N1CCOCC1
28	-3.7%	0.4%	-3.3%	-1.1	CN(C)/C=C/C(=O)c1c(F)cccc1F
29	-27.4%	4.6%	-13.1%	8.0	COc1cccc(NC(=O)Nc2ccc(C)c(Cl)c2)c1
30	-3.2%	-1.4%	-10.1%	·	Clc1cccc(CNCC2CCCO2)c1Cl (configuration not stated)
31	-0.3%	-1.2%	-2.7%	0.0	Cc1ccccc1CS(=O)(=O)Cc1ccc(C(=O)NCc2cccnc2)o1
32	12.8%	-1.8%	0.2%	8.9	COC(=O)c1[nH]c2c(c1C)C(=O)CC(c1cc(OC)ccc1OC)C2 (configuration not stated)
33	·	-1.2%	14.1%	·	O=C(C[C@@H]1C/C=C\CCCC(=O)OC[C@@H]2CCCN2C1=O)N[C@H](CO)Cc1ccccc1
34	-2.3%	0.7%	-6.5%	20.9	COc1ccc(-c2cc(C(F)(F)F)nc(SCC(=O)NCc3ccco3)n2)cc1OC
35	-48.7%	0.8%	-5.2%	-3.1	c1ccc(-c2cnnc(N3CCCCC3)n2)cc1
36	1.0%[7.66 µM]	-1.9%	-8.6%	1.7	O=C(NCC(=O)N(Cc1ccccc1)C(C(=O)NC1CCCC1)c1ccncc1)c1ccco1 (configuration not stated)
37	-1.7%	5.1%	6.5%	6.2	CC[n+]1ccc(/C=C2\Sc3ccccc3N2CCCS(=O)(=O)[O-])c2ccccc21
38	-6.3%	-6.0%	2.6%	1.5	Cn1c(SCc2ccc(Cl)cc2)nnc1-c1ccc2nonc2c1
39	4.2%	-5.2%	7.2%	-3.6	CC(OC(=O)C1CCCCC1)c1nc2ccccc2[nH]1 (configuration not stated)
40	-2.8%	?	-4.1%	-6.9	Cc1cc(-c2ccc(Br)s2)nc(-n2cccc2)n1

# 3 entries out of the list, ordered by SMILES length, largest number first.
no.	miR-21 reporter	Rango complex inh	Rango dissoc inh	GLA inh pH 4.5	Structure
34	-2.3%	0.7%	-6.5%	20.9	COc1ccc(-c2cc(C(F)(F)F)nc(SCC(=O)NCc3ccco3)n2)cc1OC
21	11.7%	-3.8%	10.6%	·	CC(Nc1nc(C(F)(F)F)nc2ccccc12)c1cccs1 (configuration not stated)
30	-3.2%	-1.4%	-10.1%	·	Clc1cccc(CNCC2CCCO2)c1Cl (configuration not stated)

# Next section:
no.	miR-21 reporter	Rango complex inh	Rango dissoc inh	GLA inh pH 4.5	Structure
41	-4.4%	-1.0%	-3.8%	15.3	COc1ccc2c(c1)c1ncn(CCN3CCNCC3)c(=O)c1n2C
42	·	1.2%	0.1%	·	CCCCCN(C(=O)CCC(=O)OCc1ccccc1C)c1c(N)n(CCCC)c(=O)[nH]c1=O
43	-3.4%	?	25.0%	-2.3	CC(=O)CCc1ccc(OC(=O)c2cccnc2)cc1
44	-4.7%	3.1%	-11.1%	0.9	CC(=O)OC(C(=O)n1nc(C)cc1C)c1ccccc1 (configuration not stated)
45	-0.2%	-2.8%	-0.6%	·	O=C(NCc1cccc(OC(F)(F)F)c1)C1CCC(=O)N(Cc2cccc(F)c2)C1 (configuration not stated)
46	-3.2%&28.0%	0.3%	-7.7%	·	CCN(c1ccc(OC)cc1)S(=O)(=O)c1nnc(NC(=O)c2ccccc2Cl)s1
47	0.9%	-0.4%	11.9%	-4.3	O=c1cc(CSc2ccc(Cl)cc2)nc(-c2ccncc2)[nH]1
48	?	3.7%	5.0%	-8.0	S=C1SCN(Cc2ccco2)CN1Cc1ccco1
49	·	2.4%	-1.0%	·	COC(=O)C=C1CCC2C3CC(F)C4(O)CC(=O)CCC4(C)C3C(=O)CC12C (configuration not stated)
50	2.0%	-3.2%	1.0%	6.2	CSc1nc2ccc(S(=O)(=O)NC3CCCCC3)cc2s1
51	-3.1%	0.2%	-5.8%	·	O=C(CCCCC(=O)NCCc1ccccc1)NCCc1ccccc1
52	-21.6%	-2.5%	33.9%	4.4	Cc1c(C(=O)OC2CCCCC2)[nH]c2c1C(=O)CC(C)(C)C2
53	-1.8%	0.6%	7.5%	1.3	Cc1ccc(S(=O)(=O)/N=C(\Nc2cccc(C)c2)Nc2nc(C)cc(C)n2)cc1
54	0.5%	-6.2%	1.7%	-3.8	COc1c(C)cc(Br)cc1C(=O)Nc1ccccc1N1CCN(C(=O)c2ccccc2)CC1
55	-5.9%	0.3%	6.4%	·	COc1cccc(C(=O)COC(=O)CCCC(=O)NC2CCCCC2)c1
56	-20.3%	-2.3%	4.5%	-17.8	CCOC(=O)c1c(NC(C)=O)sc2c(OCCN(CC)CC)c(Br)ccc12
57	-23.0%	?	0.1%	·	O=C(O)CCn1c(-c2ccccn2)nc2ccccc21
58	0.5%	-0.6%	-6.5%	-3.7	CCc1ccccc1NC(=S)N(CCCN1CCOCC1)Cc1ccccn1
59	-3.0%	0.7%	-2.8%	-13.8	Cc1nc2ncnn2c(C)c1Cc1ccc(Cl)cc1
60	-24.3%	-2.7%	-9.6%	3.4	CCN1CCN(C(=S)Nc2ccc3nc(N4CCN(CC)CC4)cc(C)c3c2)CC1

# Fetched by compound from the list above, 4 records:
no.	miR-21 reporter	Rango complex inh	Rango dissoc inh	GLA inh pH 4.5	Structure
58	0.5%	-0.6%	-6.5%	-3.7	CCc1ccccc1NC(=S)N(CCCN1CCOCC1)Cc1ccccn1
52	-21.6%	-2.5%	33.9%	4.4	Cc1c(C(=O)OC2CCCCC2)[nH]c2c1C(=O)CC(C)(C)C2
44	-4.7%	3.1%	-11.1%	0.9	CC(=O)OC(C(=O)n1nc(C)cc1C)c1ccccc1 (configuration not stated)
49	·	2.4%	-1.0%	·	COC(=O)C=C1CCC2C3CC(F)C4(O)CC(=O)CCC4(C)C3C(=O)CC12C (configuration not stated)

# Remaining list, next part
no.	miR-21 reporter	Rango complex inh	Rango dissoc inh	GLA inh pH 4.5	Structure
61	6.0%	4.7%	0.6%	·	Cc1ccc(OC(C)C(=O)Nc2ccc(S(=O)(=O)Nc3nccs3)cc2)cc1 (configuration not stated)
62	-10.7%	0.2%	-9.6%	-0.3	O=C(Nc1ccccc1CC[N+](=O)[O-])N1CCN(c2ccccc2)CC1
63	-1.4%	-1.5%	8.0%	6.6	CCC(C)NC(=S)Nc1ccccc1 (configuration not stated)
64	-9.3%	-3.9%	11.7%	-4.0	Cc1cccc(-c2nc(CSc3nc4c(c(=O)[nH]3)CCC4)c(C)o2)c1
65	-2.7%	-0.2%	-6.8%	-20.0	Cc1cc(C(=O)N2CCN(C(=O)C3CCCO3)CC2)no1 (configuration not stated)
66	18.6%	-0.2%	-22.9%	·	COc1cc(OC)c(C(=O)OCCCOC(=O)c2cc(OC)c(OC)cc2OC)cc1OC
67	-6.0%	-1.6%	-5.0%	4.0	COc1ccc2c(c1)CC(C1(O)C(=O)Nc3ccccc31)C2=O (configuration not stated)
68	-11.7%	-0.7%	-12.5%	-5.7	COc1ccc(Cl)c(Cn2c(NCc3ccco3)nc3c2c(=O)n(C)c(=O)n3C)c1
69	-5.8%	1.1%	0.7%	·	O=C(COC(=O)C1C2CC3OC(=O)C1C3C2)Nc1ccc(Br)cc1 (configuration not stated)
70	-9.4%	3.7%	23.7%	-8.0	CCC(=O)N1CCCn2c1nc1ccccc12
71	0.3%	-0.5%	-9.8%	-3.0	CCOC(=O)c1cc2sc(C)cc2n1CC(=O)N1CCc2ccccc21
72	3.3%	0.7%	5.8%	·	COc1ccc(OC)c(N(CC(=O)Nc2ccccc2)S(=O)(=O)c2ccccc2)c1
73	6.4%	-1.6%	7.2%	-6.6	COc1ccc(C(=O)NC(=S)Nc2ccc(N3CCN(C(C)=O)CC3)cc2)cc1[N+](=O)[O-]
74	-9.4%	-1.6%	-5.2%	-5.9	CCOC(=O)c1[nH]c(C)c(CN(CCc2ccccc2)S(C)(=O)=O)c1C

# One compound at a time (already shown). Order of values: miR-21 reporter, Rango complex inh, Rango dissoc inh, GLA inh pH 4.5
# Listed for O=C(NCC1CCCO1)c1onc(CSc2ccc(Cl)cc2)c1C(=O)O (configuration not stated) → -5.0%, ?, -17.9%, 0.8
# Listed for Cc1cc(-c2ccc(Br)s2)nc(-n2cccc2)n1 → -2.8%, ?, -4.1%, -6.9
# Listed for Cc1ccccc1CS(=O)(=O)Cc1ccc(C(=O)NCc2cccnc2)o1 → -0.3%, -1.2%, -2.7%, 0.0
# Listed for COCCn1c(C(F)(F)F)ccc(NC(=O)c2ccccc2)c1=O → -60.5%, ?, -10.1%, ·
# Listed for CCOC(=O)c1c(NC(C)=O)sc2c(OCCN(CC)CC)c(Br)ccc12 → -20.3%, -2.3%, 4.5%, -17.8

# Assay outcomes: PubChem BioAssay, National Center for Advancing Translational Sciences (NCATS)
